Bioassay records: PubChem BioAssay, ICCB-Longwood Screening Facility, Harvard Medical School
Mtb MbtI inh – blocks the Mycobacterium tuberculosis siderophore enzyme MbtI. P9WFX0. purified MbtI enzyme, fluorescence intensity read-out. inhibition, %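 (about 17 µg/mL by stock and volumes)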. 100,000 tested, 0.89% active. AID 493033;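 active = above 50% in both replicates, above 80% if mildly self-fluorescent; inactive = the rest, strongly fluorescent compounds included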;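 note: 0% = mean of negative and 100% = mean of positive controls; one replicate is shown; some compounds called inactive have numbers as strong as hits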
Target sequence (P9WFX0 whole entry, looked up): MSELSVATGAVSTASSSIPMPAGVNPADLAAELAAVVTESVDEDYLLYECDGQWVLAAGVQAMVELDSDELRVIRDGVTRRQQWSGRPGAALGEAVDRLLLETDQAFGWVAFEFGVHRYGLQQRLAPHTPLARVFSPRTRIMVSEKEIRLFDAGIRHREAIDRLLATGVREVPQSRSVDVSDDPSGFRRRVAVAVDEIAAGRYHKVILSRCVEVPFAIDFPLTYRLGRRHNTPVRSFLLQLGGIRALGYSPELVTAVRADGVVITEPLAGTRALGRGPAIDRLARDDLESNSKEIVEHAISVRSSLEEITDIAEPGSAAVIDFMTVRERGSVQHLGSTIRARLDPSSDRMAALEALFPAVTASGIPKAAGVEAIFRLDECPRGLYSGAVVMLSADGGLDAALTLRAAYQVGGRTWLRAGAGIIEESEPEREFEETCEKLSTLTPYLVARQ
MenB inh – blocks the Mycobacterium tuberculosis MenB enzyme | P9WNP5 | MenB enzyme assay, absorbance read-out; some hits fall short of the stated cut | inhibition, %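 (about 12 µg/mL by stock and volumes)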 | 100,000 tested, 0.43% active | AID 540299;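 active = mean of two replicates above 30%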;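 note: 0% = no compound and 100% = wells with inactive enzyme; the first replicate is given; strong numbers were not always called active; inactives centre near -10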
Target sequence (P9WNP5 whole entry, looked up): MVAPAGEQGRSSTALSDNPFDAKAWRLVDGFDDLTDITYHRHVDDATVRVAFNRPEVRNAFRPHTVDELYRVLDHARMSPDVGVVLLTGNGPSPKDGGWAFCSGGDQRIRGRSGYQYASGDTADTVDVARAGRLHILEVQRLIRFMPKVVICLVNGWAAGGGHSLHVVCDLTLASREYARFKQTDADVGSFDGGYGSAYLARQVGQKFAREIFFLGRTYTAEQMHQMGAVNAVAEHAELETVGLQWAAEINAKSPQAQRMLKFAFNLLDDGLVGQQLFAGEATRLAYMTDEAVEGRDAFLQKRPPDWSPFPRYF
PV pol inh – inhibitors of poliovirus RNA polymerase binding and polymerization | P03300 | poliovirus polymerase elongation, fluorescence polarization; hits give low values | % elongation, % (compound at 16.7 µg/mL) | 150,000 tested, 0.66% active | AID 588519; in the data active = % elongation below about 90%; note: some results filed as inactive read as strong as hits
PV pol inh intensity – recorded beside PV pol inh, whose call it bears; % elongation; measured here: total intensity read-out; formula for this scale not given here;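 total fluorescence in place of polarization; lower means less elongation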
Active calls of the source: *; i = inactive; x = not tested or not shown.

SMILES	Mtb MbtI inh	MenB inh	PV pol inh	PV pol inh intensity
O=C(CN1CCC(NC(=O)Nc2ccccc2-c2ccccc2)CC1)NCc1ccco1	-7	-47	103	100
CCCCc1ccc(C(NC(=O)CCCn2cnc3c2c(=O)n(C)c(=O)n3C)c2cccs2)cc1 (configuration not stated)	-2	-7	104	103
CCN(CC)CCNc1ncnc2c1cnn2-c1ccc(F)cc1	i	-11	99	99
c1cnc(SCCOc2ccc3c(c2)CCC3)nc1	12	-8	100	102
N#CC(C(=O)c1cc2ccccc2o1)c1nc2ccccc2s1 (configuration not stated)	5	-26	101	103
O=C(CCN1CCOCC1)c1ccc(Br)cc1	x	3	99	91
O=C(c1ccco1)N1CCN(CCN2CCOCC2)CC1	-3	7	104	110
O=C1C=Cc2ccc3c4c(ccc1c24)C=CC3=O	8	-5	99	103
CCOc1ccccc1NC(=S)NNc1nc2ccccc2o1	51	-59	99	104
O=C(NCCc1ccccc1)c1cnc(N2CCCC2)nc1	9	-6	100	102
CCC(=O)Nc1cccc(-c2nnc3c4ccccc4c(C)nn23)c1	13	-36	100	103
COC(=O)c1ccc(CSc2nncc(=O)n2N)o1	7	-20	101	100
N#C/C(=C/Nc1ccc2c(c1)OCCO2)C(=O)NCc1ccco1	1	-20	106	101
CN(C(=O)CN1N=C(c2ccc(Cl)cc2)CCC1=O)c1ccccc1	2	-10	100	106
COc1cc(Cl)c(C)cc1NC(=O)COCc1cc(-c2ccco2)on1	-11	11	103	103
CN(C)/C=N/c1nnc(SCc2ccc(F)cc2)s1	x	-18	104	101
Cn1c(-c2ccc3c(c2)OCO3)cnc1NCc1cc(Cl)ccc1O	89	-3	99	100
CCOCCCN=C1NC(C)(C)CS1	-23	-24	100	108
COC(=O)C1=NNC2C(=O)N(c3cc(C)cc(C)c3)C(=O)C12 (configuration not stated)	12	-6	102	101
O=C(O)c1ccccc1Cc1nc2cc(C(F)(F)F)ccc2c(=O)[nH]1	0	x	101	97
O=C(c1ccccc1)c1ccc(N2CCCC2)cc1	-20	-82	99	98
CCN1CCN(S(=O)(=O)c2ccc(Cl)c(C(=O)NCCc3ccc4c(c3)OCCO4)c2)CC1	-10	-3	111	114
O=C(Cc1n[nH]c(=O)c2ccccc12)N/N=C/c1ccc(-c2ccc(Br)cc2)o1	46	-31	105	104
CCN1CCCC1CNCC(=O)Nc1ccccc1C(=O)NCCc1ccc(OC)cc1 (configuration not stated)	3	-16	97	87
Cc1ccccc1Cn1c(=O)n(Cc2ccco2)c(=O)c2ccc(C(=O)NC3CCCC3)cc21	4	-14	100	101
CCOC(=O)C1=C(N)C(=O)N(CCCN2CCOCC2)C1	x	-23	108	109
O=S(=O)(c1ccc2oc3ccc(S(=O)(=O)N4CCCCCC4)cc3c2c1)N1CCCCCC1	-16	-14	105	110
COC(=O)C1(C)NC(c2ccccc2C)C2C(=O)N(C)C(=O)C21 (configuration not stated)	-2	-54	106	102
O=C(Cc1n[nH]c(=O)c2ccccc12)Nc1ccccc1C(=O)NC1CCCC1	-14	-7	105	106
N#CCCNc1nncs1	-11	-10	104	102
O=C(/C=C/c1cc(Cl)c2c(c1)OCO2)N(Cc1ccco1)Cc1cccs1	2	-22	102	110
COc1cccc(C2C3=C(CC(C)(C)CC3=O)OC3=C2C(=O)CC(C)(C)C3)c1OC	x	-1	105	109
Cc1c(Br)sc2sc(-c3nn(C)cc3Br)c(C)c12	-8	-8	99	102
CSc1nnc(CNC(=O)c2ccccc2)n1-c1cccc(C)c1	-1	-10	104	103
O=C1Nc2ccccc2/C1=C/C(=O)c1ccco1	40	-58	101	103
O=C(Sc1nc2ccccc2o1)N1c2ccccc2Sc2ccccc21	4	7	103	104
Cc1oc2c(c1C(=O)NCCC(C)C)C(=O)c1ccccc1C2=O	15	-6	101	101
COc1ccc(C)cc1NC(=S)NC12CN3CN(CN(C3)C1)C2	2	-15	103	107
Cc1ccc(S(=O)(=O)n2c(C)cc(C(=O)O)c2C)cc1	5	1	104	108
CC1CN(S(=O)(=O)c2ccc(C(=O)O)cc2)CC(C)O1 (configuration not stated)	-12	-15	102	96
CCOC(=O)c1sc(N)c(C#N)c1COC(=O)[C@@H]1CCCN1C(=O)c1cccs1	15	-10	158	183
Cc1[nH]c(=O)[nH]c(=O)c1S(=O)(=O)N1CCC(C(=O)NCCN2CCN(c3ccccc3)CC2)CC1	0	4	98	103
O=C(NCc1cccs1)c1cccc(OC(F)F)c1	7	-24	99	103
CCOC(=O)CN1C(=O)C2(C(C#N)=C(N)Oc3ccccc32)C2=C1CC(C)(C)CC2=O (configuration not stated)	-4	-27	102	110
COC(=O)c1ccc(NS(=O)(=O)c2cc(C(=O)OC)n(C)c2)cc1	-13	-16	103	101

For convenience, 2 of the compounds above:
SMILES	Mtb MbtI inh	MenB inh	PV pol inh	PV pol inh intensity
COc1cccc(C2C3=C(CC(C)(C)CC3=O)OC3=C2C(=O)CC(C)(C)C3)c1OC	x	-1	105	109
Cc1c(Br)sc2sc(-c3nn(C)cc3Br)c(C)c12	-8	-8	99	102

Additional records:
SMILES	Mtb MbtI inh	MenB inh	PV pol inh	PV pol inh intensity
Fc1cccc(-c2[nH]ncc2-c2nnnn2-c2ccccc2)c1	-10	-4	99	98
COc1ccc(Cl)cc1NC(=O)C1CC(=O)n2c(nc3ccccc32)N1 (configuration not stated)	-10	-6	104	105
Cc1ccc(C)c(S(=O)(=O)N2CCN(CC(=O)Nc3ccc4[nH]c(=O)[nH]c4c3)CC2)c1	-6	-26	99	90
CCOc1c(NC(=O)c2ccc(N)cc2)cc(NC(=O)c2ccc(N)cc2)cc1C(N)=O	3	-8	101	100
O=C(CC1Sc2ccccc2NC1=O)OCc1cc(=O)oc2cc(O)ccc12 (configuration not stated)	37	-3	100	107
Nc1nc(CN2CCN(C(=O)c3ccco3)CC2)nc(N2CCCc3ccccc32)n1	2	-35	105	104
CC(C)c1ccc2c(c1)CCC1C(C)(CNC(=O)/C=C/C(=O)O)CCCC21C (configuration not stated)	-13	-5	102	106
O=C(c1ccccc1)N1CCN(c2ccccc2)CC1	x	5	106	107
Cc1cc(C(F)(F)F)nn1C(=O)c1cccnc1Cl	-3	-5	100	99
C=CCN1C2=NC(=O)CN2c2ccccc21	3	7	101	102
COc1ccc(CNC(=S)N(CC(N)=O)C(C)C)cc1	7	0	98	105
COc1ccccc1N1CCN(C(=O)CCNS(=O)(=O)c2ccc3c(c2)CCC(=O)N3)CC1	-10	-7	102	106
Cc1c(CCO)sc[n+]1CC(=O)OC12CC3CC(CC(C3)C1)C2	-12	x	102	106
CC(C)NC(=O)CCCn1sc2ccccc2c1=O	5	-12	102	103
CS(=O)(=O)c1ccc(NC(=O)CN2CSCC2=O)cc1	63	1	106	107
O=C(Nc1cccc(-c2nc3ccccc3o2)c1)c1ccccc1	22	8	100	100
CC1(c2ccccc2)CNC(=O)C1 (configuration not stated)	-1	-13	101	103
CC(C)(C)c1ccc(COC(=O)c2ccc[nH]c2=O)cc1	-129	-14	99	104
O=C(Cn1ncn2nc(-c3ccccc3)cc2c1=O)N1CCCC1	16	6	99	101
CNC(=S)N1CCN(c2cccc(C)c2C)CC1	-5	-16	102	100
CCC(=O)Nc1nnc(SCC(=O)Nc2ccc3c(c2)OCO3)s1	3	-32	103	108
Cc1cc(C)cc(C(=O)NCC(=O)OCN2C(=O)c3ccccc3C2=O)c1	2	3	99	104
O=C1NCCN2CCCC12 (configuration not stated)	-4	-3	102	102
Cc1nc(NCc2ccc(F)cc2)nc2c1C(=O)c1ccccc1-2	-6	6	98	107
O=C1CSC(c2cccnc2)N1CC1CC1 (configuration not stated)	-9	-16	100	95
N#Cc1c(N)c2ccccn2c1C(=O)c1ccc(Br)cc1	-2	-27	102	99
CC12CCC3C(CCC4CCCCC43C)C1C/C(=C\c1ccc[nH]1)C2=O (configuration not stated)	x	-21	109	113
CN(C)c1ccc(C(O)C(=O)c2cccs2)cc1 (configuration not stated)	12	-9	99	101
CCOC(=O)C1=C(O)c2ccccc2NC(=O)C1	x	-14	104	109
O=C(/C=C/c1ccco1)OCC(=O)N1CCC(Cc2ccccc2)CC1	3	x	104	98
CCN(CC)C(=O)CSc1n[nH]c(-c2cccs2)n1	1	-2	102	98
C=Cc1c(S(C)(=O)=O)sc(C(=O)Oc2ccccc2)c1C	-8	-8	99	94
CC(C(=O)Nc1ccc(C(N)=O)cc1)N1CCC(c2nc3ccccc3o2)CC1 (configuration not stated)	-6	-2	104	105
CCCn1ccc2c(OCC(=O)Nc3ccc(NC(C)=O)cc3)cccc2c1=O	8	-15	100	103
NCc1noc(-c2ccccc2)n1	-7	-46	106	100
O=C(Cc1ccc(-n2c(=O)[nH]c3ccsc3c2=O)cc1)Nc1ccc(-c2ccccc2)cc1	0	-14	104	107
O=C(CSc1nc2cc(C(=O)NCc3ccco3)ccc2c(=O)n1Cc1ccco1)c1ccccc1	-11	-10	101	102
COc1ccc(OC)c2[nH]c(=O)c(CCNC(C)=O)cc12	1	-7	100	101
COC(=O)c1ccc(NC(=O)CSC2=NCCS2)cc1	-2	27	102	101
O=c1nc(-c2ccccc2)c2cc(SC(F)F)ccc2[nH]1	-8	-10	101	103
Cc1cc(=O)oc2c(C(=O)c3ccccc3)c(OC(=O)C(C)C)ccc12	-20	-25	104	105
CN(C(=O)CN1CCN(c2cccc(C(F)(F)F)c2)CC1)C1CCS(=O)(=O)C1 (configuration not stated)	15	-4	98	92
S=C(Nc1ccccc1)c1ccccc1	x	-10	110	108
CCCCNC(=O)Oc1ccc(-c2csnn2)cc1	7	-1	105	103
N=c1n(CC(=O)O)c2ccccc2n1Cc1ccccc1	-11	-1	102	103

Exported in markdown: entries from further up.
| canonical_smiles | Mtb MbtI inh | MenB inh | PV pol inh | PV pol inh intensity |
| --- | --- | --- | --- | --- |
| O=c1nc(-c2ccccc2)c2cc(SC(F)F)ccc2[nH]1 | -8 | -10 | 101 | 103 |
| Cc1cc(=O)oc2c(C(=O)c3ccccc3)c(OC(=O)C(C)C)ccc12 | -20 | -25 | 104 | 105 |
| CN(C(=O)CN1CCN(c2cccc(C(F)(F)F)c2)CC1)C1CCS(=O)(=O)C1 (configuration not stated) | 15 | -4 | 98 | 92 |
| S=C(Nc1ccccc1)c1ccccc1 | x | -10 | 110 | 108 |
| CCCCNC(=O)Oc1ccc(-c2csnn2)cc1 | 7 | -1 | 105 | 103 |
| N=c1n(CC(=O)O)c2ccccc2n1Cc1ccccc1 | -11 | -1 | 102 | 103 |

Further entries
SMILES	Mtb MbtI inh	MenB inh	PV pol inh	PV pol inh intensity
Cc1cc(C)c2c(-n3cccc3)c(C(=O)NC(C)C)sc2n1	2	10	103	104
CC(C)Cc1nn(-c2ccccc2)cc1/C=C1\Cc2ccccc2C1=O	12	-50	102	101
Cc1nc(-c2ccc(OCC(=O)O)cc2)cs1	3	-17	101	97
CCc1ccccc1NC(=O)C(C)(C)CC	x	-1	106	109
Cc1cc(CNCCCN2CCCCC2C)c(C)n1-c1ccnn1C(C)C (configuration not stated)	-12	-7	98	92
CN(C)/C=C/C(=S)c1cccs1	13	-78	100	106
CC(NC(=S)Nc1ccc2c(c1)OCO2)C1CCCO1 (configuration not stated)	6	-25	100	104
Cc1cc(C)c(C(=O)O)c(=S)[nH]1	89*	-22	102	103
CC(=O)Nc1ccccc1/C=C/Br	-2	x	100	102
Cc1ccc(S(=O)(=O)N2CCCC(C(=O)NCCc3ccccc3)C2)cc1 (configuration not stated)	-7	-5	102	107
O=C(CN1C(=O)S/C(=C\c2ccc(-c3ccc(F)cc3F)o2)C1=O)N1CCOCC1	2	-4	102	113
COCCNC(=O)Cn1cnc2onc(-c3ccc(F)cc3)c2c1=O	-11	9	102	105
O=C(Nc1ccc(Cl)cc1C(=O)N1CCOCC1)c1ccco1	5	29	102	101
CC1CCCN(CCS(=O)(=O)c2ccccc2)C1 (configuration not stated)	-6	-12	101	98
Cn1c(Cc2cccc3ccccc23)nnc1SCc1ccccc1C#N	-2	-25	100	100
NC(=O)C1CCN(S(=O)(=O)c2ccccc2)CC1	0	-1	104	108
COc1ccc(N2CCN(c3nn(C)c(=O)n(C)c3=O)CC2)cc1	-12	-20	102	110
CCSc1nc(O)cc(=O)n1CC	-3	-279	102	102
Cc1ccc2ccc(S(=O)(=O)N3CCCCC3)cc2c1	12	-35	98	100
CC(=O)Nc1ccc2c(Cn3ncc(Cl)c(Cl)c3=O)cc(=O)oc2c1	-25	-11	96	98
CC(C)NC(=O)c1ccc(-c2ccccc2)cc1	x	-13	107	110
CN1C(=O)c2ccccc2N(C)C1c1cccs1 (configuration not stated)	89	-47	104	102
NNC(=O)c1cccc(C(=O)NN)n1	-2	-11	103	101
CCOC(=O)c1ccc(N2N=C(C(F)(F)F)/C(=C/c3ccc(OCC)c(OCC)c3)C2=O)cc1	x	-14	117	171
CN(C)c1ccc(C2OC(COc3ccccc3)CN(C(=O)c3ccccc3)O2)cc1 (configuration not stated)	x	-8	106	99
COc1ccc2nc(SCC(=O)Nc3cc(F)ccc3F)[nH]c2c1	-4	x	101	108
CCN(CC)S(=O)(=O)c1cccc(-c2nnc(SCC(=O)Nc3cc(C)on3)o2)c1	-7	-10	106	116
CC(=O)Nc1ccccc1-c1nc2ccc(C(=O)N3CCC(Cc4ccccc4)CC3)cc2[nH]c1=O	-21	-15	100	99
